# NPYLR7 agonist – agonists of mosquito NPYLR7 receptor, primary screen, cell-based, Aedes aegypti, calcium fluorescence, mosquito biting behavior; Aedes aegypti neuropeptide Y-like receptor 7 (NPYLR7); HEK293T NPYLR7/Galpha15, GCaMP6s calcium fluorescence; activation, % at 10 µM; 0.15% of 270,000 active; in the data active means activation above about 40%;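 further: 0% = vehicle and 100% = reference agonist at the receptor; some compounds past the cut are filed as inactive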
# NPYLR7 agonist max-min – recorded beside NPYLR7 agonist, whose call it bears; activation, %; measured here: Max-Min RFU normalised activation; some inactives read as strong as hits;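 span of the calcium signal over five minutes; 0% = vehicle and 100% = native peptide agonist; compound fluorescence can raise it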
# * = called active by the depositor; & = joins results of further samples.
# Preview, 4 compounds:
SMILES	NPYLR7 agonist	NPYLR7 agonist max-min
Cc1ccc2nc(NC(=O)C3CCCCC3C(=O)O)sc2c1 (stereo not drawn)	-8.0	-14.8
COC(=O)c1oc2cc(C)ccc2c1C	-9.2	-3.6
Cn1c(=O)c2c(nc3n2CC(=O)N3c2ccc3c(c2)CCC3)n(C)c1=O	-0.9	-3.3
CCCc1cc(=O)[nH]c(-n2nc(C)cc2NC(=O)C2c3ccccc3Oc3ccccc32)n1	7.2	0.9

# Results, from the start:
SMILES	NPYLR7 agonist	NPYLR7 agonist max-min
Cc1ccc2nc(NC(=O)C3CCCCC3C(=O)O)sc2c1 (stereo not drawn)	-8.0	-14.8
COC(=O)c1oc2cc(C)ccc2c1C	-9.2	-3.6
Cn1c(=O)c2c(nc3n2CC(=O)N3c2ccc3c(c2)CCC3)n(C)c1=O	-0.9	-3.3
CCCc1cc(=O)[nH]c(-n2nc(C)cc2NC(=O)C2c3ccccc3Oc3ccccc32)n1	7.2	0.9
CC(OCc1ccccc1)C(=O)N1CCN(CCO)CC1 (stereo not drawn)	10.6	8.4
COc1ccc(-n2nc(C(=O)NC(C)c3ccccc3)c(=O)n(Cc3ccccc3C)c2=O)cc1OC (stereo not drawn)	-0.8	4.2
CC1(C)C2CC=C(CCOC(=O)NC(=O)c3ccc(Cl)cc3)C1C2 (stereo not drawn)	2.8	1.0
COc1ncc(-c2nccn2CCc2cnn(-c3ccccc3)c2)cn1	12.6	5.1
O=C(Cn1nc(-c2cccs2)c2sc(N3CCCCC3)nc2c1=O)N1CCCc2ccccc21	-1.0	-6.1
O=C(Nc1ccccc1)c1cc2n(n1)CCCN(Cc1ncc[nH]1)C2	8.3	1.4
O=C(Nc1cc(-c2onc3c2CCCC3)ccc1Cl)c1cccc(OC(F)(F)F)c1	-3.8	-13.7
Fc1ccc(C2CCN(C(=S)Nc3c(Cl)cccc3Cl)CC2)cc1	-7.2	-11.2
O=C(Cn1cnc([N+](=O)[O-])n1)N1CCCC1	0.3	0.2
CC(=O)SC[C@@H](C)C(=O)N1CCCC1C(=O)Nc1n[nH]c(C)n1 (stereo partly drawn)	1.8	-3.0
COc1ccc(-n2ncc(C(C)NCc3cccc(SC)c3)c2C)cc1 (stereo not drawn)	2.5	-0.9
C[C@@H]1C[C@@H](CC(=O)N(C)Cc2ccc3ncccc3c2)NC(=S)N1	-1.4	-1.8
OCC1(CCc2ccccc2)CCN(Cc2ccc3ccccc3n2)CC1	1.4	-0.8
Cc1nc2c(SCC(=O)NC(C)C)nnc(-c3ccccc3)c2s1	-1.4	-3.4
COc1ccc2o/c(=N/NC(=O)c3ccc([N+](=O)[O-])cc3)c(-c3nc4ccccc4[nH]3)cc2c1	-3.9	-10.9
Cc1nn(Cc2ccccc2Cl)c(C)c1C(=O)N1CCC(C)(C)C1	2.1	27.4
O=C(c1cccnc1)N1N=C(c2ccccc2)CC1(O)C(F)(F)F (stereo not drawn)	-1.9	-2.0
Cc1cc(N2CCCC2)n2ncc(-c3ccccc3)c2n1	-0.5	-4.1
O=C(Nc1nccs1)c1ccc(Br)c(S(=O)(=O)N2CCCCC2)c1	-4.1	-11.1
Cc1ccc(NC(=O)Cn2c(O)c(N=Nc3ccc([N+](=O)[O-])cc3[N+](=O)[O-])c3ccccc32)cc1	-6.0	-14.5
CCc1nn2c(nnc3c(=O)n(-c4ccc(F)c(Cl)c4)ccc32)c1-c1ccccc1	3.2	1.0
COCCC(=O)N1CCC(Oc2ccc(C(=O)NCc3ccon3)cc2)CC1	11.9	5.8
O=C(Nc1cnc2n1CCCC2)c1ccc2sc3c(c2c1)CCNC3=O	-3.4	-3.1
CCc1nnc(CNc2ccc(C)c(C(F)(F)F)c2)n1C	4.0	1.0
O=C(NCc1ccccc1)c1ccc(C(F)(F)F)cc1	1.5	0.1
Cc1ccc(NC(=O)CNC(=O)c2ccccc2)cc1C	-1.5	-2.9

# More records:
SMILES	NPYLR7 agonist	NPYLR7 agonist max-min
CCn1c(CC2CCN(Cc3cc(C#CCO)cs3)CC2)n[nH]c1=O	14.1	-0.5
CN1CCN(Cc2c(O)ccc3c2O/C(=C\c2cc4cc(Br)ccc4o2)C3=O)CC1	61.9*	47.7*
Cc1nc2ccccn2c1CN1CCCN(c2ccc(F)cc2)CC1	-2.8	-2.1
COc1ccc(-c2cc(C(=O)N3CCN(c4cccc(C(F)(F)F)c4)CC3)n(-c3ccc(Cl)c(Cl)c3)n2)cc1	1.9	16.7
Cc1cccc(S(=O)(=O)N2CCC(NC(=O)c3occc3C)CC2)c1	0.9	0.9
COc1ccc(-n2nc(C(=O)N3CCOCC3)c(=O)n(Cc3cccc(Cl)c3)c2=O)cc1	17.7	20.3
CCCC1=NN(C(=O)c2ccccc2OC)C(O)(C(F)(F)F)C1 (stereo not drawn)	1.5	0.0
CCN1CCc2nc(NC(=O)c3ccc(Br)cc3)sc2C1	2.6	7.7
COc1ccc(C(=O)N2CCN(C3c4ccccc4CCc4ccccc43)CC2)c(OC)c1	26.1	29.9
CNC(=O)C1CCN(c2ncnc3ccccc23)CC1	-5.2	-7.1
CN(C)C1CCCN(C(=O)Cc2ccc(O)c(Cl)c2)CC1 (stereo not drawn)	3.9	2.7
CN(C)S(=O)(=O)CCNC1CCSC1 (stereo not drawn)	1.8	4.9
Cc1ccc(COc2cn(CC(=O)N3CCOCC3)c(C)cc2=O)cc1	0.5	-0.5
COc1ccc(C2=NN(C(=O)CSc3nc(=O)n4cccc(C)c4n3)C(c3ccc(C)cc3)C2)cc1 (stereo not drawn)	1.1	-1.2
Cc1cccc2[nH]c(C3CCN(Cc4cc(C#CCO)cs4)CC3)nc12	18.4	10.1
CC(C)Cn1c(CC(C)(C)C)nc2ccccc21	6.2	5.6
Cc1oc(-c2ccoc2)nc1CN1C[C@]2(C)C[C@H]1CC(C)(C)C2	5.8	0.3
Cc1cccc(OCC(=O)NCCCn2nc(-c3ccccc3)ccc2=O)c1C	-2.0	-4.1
O=C1NC2(O)C3C4CC5C6C4C2C6C1(O)C53 (stereo not drawn)	-8.9	-11.1
Fc1c(F)c(N2CCCCC2)c(F)c(F)c1Br	1.9	1.1
Cc1oc(C(=O)O)cc1S(=O)(=O)Nc1cc(Br)ccc1F	2.1	-2.3
CC(C)c1cc(C2CCN(Cc3ccc(O)c(Cl)c3)CC2)[nH]n1	18.8	8.0
CCN(CC)C(=O)Oc1ccc2c(ccn2Cc2cc(Cl)cc(Cl)c2)c1-c1ccc(F)c(F)c1	8.6	2.0
CCC(C)N(CC(=O)N(Cc1ccco1)Cc1cccn1C)C(=O)c1cccc(Cl)c1 (stereo not drawn)	-7.6	-2.5
Cc1cccc(C#Cc2ccccc2)n1	-1.2	-19.9
O=C(O)c1[nH]ncc1CN1CCCC(c2nc3ccccc3o2)C1 (stereo not drawn)	10.8	3.3
COc1cc(CN2CCCn3cccc3C2c2ccc(C(F)(F)F)cc2)ccc1O (stereo not drawn)	5.0	19.5
CC1CC(C)(C)CC2(C1)NC(=O)N(CC(=O)NCCC(=O)N1CCCC1)C2=O (stereo not drawn)	8.8	12.2
COc1ccc(NC(=O)c2nnn(-c3ccc(OC)cc3)c2N)cc1	3.6	1.8
c1ccc(Cn2cc(CN3CCSCC3)c(-c3ccc4c(c3)OCO4)n2)cc1	8.2	8.4

# Later entries:
SMILES	NPYLR7 agonist	NPYLR7 agonist max-min
CCCS(=O)(=O)Nc1cccc(C(=O)N2CCN(Cc3cc(C)no3)CC2)c1	0.1	-1.4
CC(C)c1ccc(S(=O)(=O)N(C)C2CCS(=O)(=O)C2)cc1 (stereo not drawn)	-2.1	-2.8
Cc1ccc2nc(SCC(=O)Nc3cccc4ccccc34)nc(=O)n2c1	-1.2	-3.0
Cc1cc(C)c(S(=O)(=O)Nc2ccc(-n3cccn3)cc2)c(C)c1	0.0	-0.4
O=C(c1ccco1)N1CCCC(N2CCN(c3ccccc3F)CC2)C1 (stereo not drawn)	1.6	-0.7
COc1ccc(CN2CCN(c3nc4ccccc4s3)CC2)c(OC)c1OC	-4.5	-4.7
Cc1noc2ncc(C(=O)NC34CC5CC(CC(C5)C3)C4)cc12	1.9	2.0
COCC(=O)Nc1ccc(-c2c(-c3cccc(C)c3)nn(-c3cccc(C)c3)c2OC(C)=O)cc1	-1.1	5.8
Cc1cc(C)cc(NC(=O)CSc2nccn(-c3ccc(Br)cc3)c2=O)c1	0.2	5.5
CN1C(=O)C2(CCN(c3ncnc4c3CCC4)CC2)c2ccccc21	2.6	1.6
CC1(C)CC2CC(C)(CN2C(=O)CSc2nn3c(=O)c(C(C)(C)C)nnc3s2)C1 (stereo not drawn)	18.6	8.5
O=C(Cn1nnc(-c2cccs2)n1)c1ccc(Cl)s1	6.4	5.7
CC1(Cc2ccc(S(C)(=O)=O)cc2)C(=O)Nc2cc(-c3ccccc3Cl)ccc21 (stereo not drawn)	3.5	3.5
OC(COc1ccccc1)CN(Cc1ccccc1)Cc1cccs1 (stereo not drawn)	-3.6	-1.5
COc1ccc2[nH]cc(C3CCN(S(=O)(=O)c4ccc(C(F)(F)F)cc4Cl)CC3)c2c1	27.9	13.3
COc1ccccc1-n1c(SCc2ccc(C(=O)O)cc2)nnc1-c1ccc(C)cc1	-3.3	-6.6
CC(=O)Nc1ccc(SC2CCCCC2=O)cc1 (stereo not drawn)	6.4	3.5
CC(C1CC2CCC1C2)n1c(COc2ccccc2F)n[nH]c1=S (stereo not drawn)	-6.5	-8.9
Oc1ccc(N2CCN(Cc3nc(-c4ccc(C(F)(F)F)cc4)no3)CC2)cc1	-0.5	-2.3
COc1ccccc1N1CCN(c2nc(Nc3cc(C)ccc3C)c3nccnc3n2)CC1	4.2	3.4
O=C(CSc1nnc(CNC(=O)c2ccco2)n1-c1ccc(Br)cc1)Nc1ccccc1F	-7.0	-4.0
CCNC(=O)NC(=O)CSc1nc(C(C)C)n(-c2ccccc2)n1	8.7	5.9
CC(C)c1nccc(CN2CCC(c3[nH]ncc3Cc3ccccc3)CC2)n1	1.4	1.0
CCN(CC)C(=O)Oc1ccc2c(ccn2Cc2cc(C)cc(C)c2)c1NC(=O)C12CC[C@@](C)(C(=O)O1)C2(C)C	-1.0	-12.1
O=C(NC1CC1)C1CCN(C2CCN(Cc3ccc(-c4ccccc4)cc3)CC2)CC1	-3.6	-5.4
CCN(CC)Cc1ccc(C(=O)NCc2cccnc2N2CCOCC2)o1	5.2	2.0
CN(C(=O)c1cc(-c2ccccc2)n[nH]1)C1CCCC1	0.5	-1.9
CC1CN(C)c2ccccc2CN1C(=O)NCCc1ccccn1 (stereo not drawn)	3.3	1.0
NC1CCCN(Cc2ccccn2)C1 (stereo not drawn)	7.5	3.9
CN(C)C1CCN(C(=O)CC2c3ccccc3CCc3ccccc32)C1 (stereo not drawn)	5.6	-0.8

# Whole records as entered above. Values in the order: NPYLR7 agonist, NPYLR7 agonist max-min
# Shown for CC(=O)Nc1ccc(SC2CCCCC2=O)cc1 (stereo not drawn) → 6.4, 3.5
# Shown for COc1ccc2o/c(=N/NC(=O)c3ccc([N+](=O)[O-])cc3)c(-c3nc4ccccc4[nH]3)cc2c1 → -3.9, -10.9
# Shown for COc1ccc2[nH]cc(C3CCN(S(=O)(=O)c4ccc(C(F)(F)F)cc4Cl)CC3)c2c1 → 27.9, 13.3
# Shown for COc1ccc(-n2nc(C(=O)N3CCOCC3)c(=O)n(Cc3cccc(Cl)c3)c2=O)cc1 → 17.7, 20.3
# Shown for CNC(=O)C1CCN(c2ncnc3ccccc23)CC1 → -5.2, -7.1

# Look-ups from above.
# NPYLR7 agonist result of CCN(CC)C(=O)Oc1ccc2c(ccn2Cc2cc(C)cc(C)c2)c1NC(=O)C12CC[C@@](C)(C(=O)O1)C2(C)C : -1.0
# NPYLR7 agonist max-min result of COc1ccccc1N1CCN(c2nc(Nc3cc(C)ccc3C)c3nccnc3n2)CC1 : 3.4
# NPYLR7 agonist result of CC1(Cc2ccc(S(C)(=O)=O)cc2)C(=O)Nc2cc(-c3ccccc3Cl)ccc21 (stereo not drawn) : 3.5
# NPYLR7 agonist result of COc1ccccc1-n1c(SCc2ccc(C(=O)O)cc2)nnc1-c1ccc(C)cc1 : -3.3

# (continued)
SMILES	NPYLR7 agonist	NPYLR7 agonist max-min
CCc1c(C)nn(-c2ccc(C(=O)N[C@@H](C)[C@H](O)c3ccccc3)cc2)c1C	-2.9	-1.1
CC(=O)OCC(=O)NCCCOc1cccc(CN2CCCCC2)c1	-2.6&2.3&-1.4	-8.3&2.0&-7.2
CN1C[C@H](NC(=O)c2cn3cc(Cl)ccc3n2)C[C@H]1CO	-4.9	-5.3
OCCC1CN(Cc2cccc3c2OCO3)CCN1Cc1ccccc1F (stereo not drawn)	-6.3	-6.0
S=c1cc(-c2ccccc2)sc2ccccc12	4.0	1.1

# Some of the entries so far, as labelled records.
CC(=O)OCC(=O)NCCCOc1cccc(CN2CCCCC2)c1
  NPYLR7 agonist: -2.6&2.3&-1.4
  NPYLR7 agonist max-min: -8.3&2.0&-7.2

CN1C[C@H](NC(=O)c2cn3cc(Cl)ccc3n2)C[C@H]1CO
  NPYLR7 agonist: -4.9
  NPYLR7 agonist max-min: -5.3

OCCC1CN(Cc2cccc3c2OCO3)CCN1Cc1ccccc1F (stereo not drawn)
  NPYLR7 agonist: -6.3
  NPYLR7 agonist max-min: -6.0

S=c1cc(-c2ccccc2)sc2ccccc12
  NPYLR7 agonist: 4.0
  NPYLR7 agonist max-min: 1.1

# A portion of the library, so the mix of outcomes need not match the whole.
